Cruzain inh Det – inhibitors of Trypanosoma cruzi cruzain with detergent. P25779. purified cruzain, Z-FR-AMC fluorescence, 0.01% Triton. Potency, µM, without a hit: max response, negative = inhibition, actives largely listed as inhibitors. 200,000 compounds, 0.43% hits;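 also: plate controls were neutral wells for no effect and buffer without enzyme for full effect; nearly all actives have a fitted effect of over 40% in size; top concentration of the series not given in the record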
Target sequence (P25779 123-467 limits assumed): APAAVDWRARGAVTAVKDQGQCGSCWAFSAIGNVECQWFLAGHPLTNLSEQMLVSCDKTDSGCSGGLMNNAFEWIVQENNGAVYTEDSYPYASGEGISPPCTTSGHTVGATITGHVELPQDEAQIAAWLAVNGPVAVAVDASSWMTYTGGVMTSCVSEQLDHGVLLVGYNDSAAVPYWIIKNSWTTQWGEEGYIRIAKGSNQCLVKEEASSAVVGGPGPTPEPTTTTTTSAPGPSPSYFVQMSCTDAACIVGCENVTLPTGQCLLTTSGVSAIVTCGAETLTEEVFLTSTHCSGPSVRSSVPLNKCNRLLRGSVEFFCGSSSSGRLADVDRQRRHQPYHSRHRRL
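15 min RT preincubation of 1.5 nM cruzain with compound, then 2 uM Z-FR-AMC added; kinetic AMC fluorescence, 60 s delta. Triton X-100 0.01%, pH 5.5.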
Lassa entry inh – Lassa virus entry inhibition | Lassa virus pseudotype entry inhibition, cell reporter; control for the full effect not named in the record | 300,000 compounds, 1.2% hits | AID 540256 | Potency, µM (doses to about 37.9 µM), inactives show at the highest dose activity change, negative = inhibition, actives largely listed as inhibitors; active means well fitted inhibition curve with a large enough effect; inconclusive means small, poorly fitted or top-dose-only effect, or effect the other way; inactive means flat fitted curve, though single readings scatter; tested in HEK293 cells; also: % is scaled to controls: 0 for no effect and ±100 for the full control effect; nearly all actives have a fitted effect of over 50% in size; luciferase read-out
NS1 function inh – blocks influenza NS1 protein function; AID 2326; Potency, µM (highest dose often 46.1 µM), for inactives: top-dose activity, positive = more growth; S. cerevisiae slowed by influenza A NS1, growth recovery by OD600; 270,000 compounds, 0.4% hits; active means well fitted rising curve with a large enough effect; inconclusive means small, poorly fitted or top-dose-only effect; inactive means no such curve, though single readings can be large or run the other way; also: nearly all actives have a fitted effect of over 50% in size
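Growth recovery, yeast-based: influenza A NS1 expressed in S. cerevisiae causes slow growth, and suppressors are detected by OD600. The parent strain without NS1 is used as positive control.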
StopGo reporter – lowers the luciferase signal of an FMDV 2A StopGo reporter; Potency, µM (top dose mostly 57.9 µM), for inactives: top-dose signal change, negative = less light; AID 1159524; human cells with a luciferase reporter of 2A StopGo recoding; control for the full effect not named in the record; 410,000 compounds, 1.2% hits; active = well fitted falling curve with a large enough effect; inconclusive = small, poorly fitted or top-dose-only effect; inactive = no such curve, though single readings can be large or run the other way; tested in HEK293T cells; also: % is scaled to controls: 0 for no effect and ±100 for the full control effect; nearly all actives have a fitted effect of over 45% in size; luciferase light after 4 h
Cruzain noTriton – inhibitors of Trypanosoma cruzi cruzain without detergent | P25779 | purified cruzain, Z-FR-AMC fluorescence, no detergent | Potency, µM, without a hit: max response, negative = inhibition, usual class: inhibitors | 200,000 compounds, 2.3% hits | AID 1476;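 also: plate controls were enzyme without inhibitor for no effect and buffer without enzyme for full effect; nearly all actives have a fitted effect of over 40% in size; top concentration of the series not given in the record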
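Detergent-free condition (0.00005% Triton X-100) in acetate buffer pH 5.5 with DTT. 1.5 nM enzyme and compound were pre-mixed 15 min, then 2 uM Z-FR-AMC substrate added; reaction progress from fluorescence change between first and third reads (60 s).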
Marburg entry inh – inhibitors of Marburg virus binding or cell entry | Marburg virus pseudotyped entry inhibition, cell reporter; control for the full effect not named in the record; about a third of the inactives were read at about 46 µM | Potency, µM (titrated, usually from 37.8 µM), for inactives: top-dose activity change, negative = inhibition, usual class: inhibitors | 300,000 compounds, 1.8% hits; active = well fitted inhibition curve with a large enough effect; inconclusive = small, poorly fitted or top-dose-only effect, or effect the other way; inactive = flat fitted curve, though single readings scatter; tested in HEK293 cells; about a fifth of its hits are not listed in these tables; also: % is scaled to controls: 0 for no effect and ±100 for the full control effect; luciferase read-out
RE007 growth inh – less growth of the S. pombe RE007 Vpr strain | S. pombe RE007 Vpr strain, BacTiter-Glo ATP luminescence, 24 h; control for the full effect not named in the record | Potency, µM (doses to about 92.2 µM), inactives show at the highest dose activity change, negative = less growth | 360,000 compounds, 0.21% hits | AID 651644; active = well fitted falling curve with a large enough effect; inconclusive = small, poorly fitted or top-dose-only effect; inactive = no such curve, though single readings can be large or run the other way;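 also: % is scaled to controls: 0 for no effect and ±100 for the full control effect; nearly all actives have a fitted effect of over 50% in size; the assay follows cell death caused by Vpr and the record does not say whether a fall means rescue or toxicity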
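Fission yeast strain RE007, carrying one chromosomally integrated HIV-1 vpr copy, was seeded at OD 0.01 in PMG+AL medium with 23 nL pinned compound. After 24 h at 30 °C and 99% humidity, viability was read by BacTiter-Glo luminescence.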
SARS PLP yeast – SARS-CoV PLP inhibition in yeast; S. cerevisiae expressing SARS-CoV PLpro, growth rescue; control for the full effect not named in the record; Potency, µM (highest dose often 32.9 µM), without a hit: at the highest dose activity, positive = growth rescue; 330,000 compounds, 0.19% hits; AID 485353; active means well fitted rising curve with a large enough effect; inconclusive means small, poorly fitted or top-dose-only effect; inactive means no such curve, though single readings can be large or run the other way; also: 0% is about no effect; nearly all actives have a fitted effect of over 55% in size; growth read by luminescence after 48 h
The depositor's hits bear a star; ? = inconclusive; . = not tested or not shown; & = joins results of further samples; [ ] = dose if it differs, or a comment. Unless noted, calls follow the shape of the dose curve; as a rule, active = well fitted curve in the direction sought with a large enough effect; inconclusive = small, poorly fitted or top-dose-only effect, or another doubt; inactive = no such curve, though single readings can be large; an effect the other way counts as inactive or inconclusive. Potency is read from the fitted curve at half-maximal effect.

SMILES | Cruzain inh Det | Lassa entry inh | NS1 function inh | StopGo reporter | Cruzain noTriton | Marburg entry inh | RE007 growth inh | SARS PLP yeast
Cc1ccc(CNC(=O)c2ccc(-c3nc(CS(=O)(=O)c4ccc(C)cc4)c(C)o3)cc2)cc1 | -1.2% | 17%[46.1 µM] | . | -20% | -14% | . | . | .
CC(=O)Nc1ccc(Oc2ccc(NC(C)=O)c(NC(C)=O)c2)cc1 | . | 6% | 2% | 6% | . | -4% | 4% | -1%
Cc1c(NC(=O)CN2CCN(c3ccc([N+](=O)[O-])cc3)CC2)c(=O)n(-c2ccccc2)n1C | . | 1% | . | -25% | . | 13%[46.1 µM] | -7% | -2%
CCOC(=O)C1C(=O)NC(c2ccccc2)=NC1c1ccccc1 (stereo not drawn) | -0.2% | 0% | 7% | -25% | 10% | -7% | 6% | -12%
O=C(NCC1(c2ccccc2)CCCC1)c1ccco1 | . | 4%[46.1 µM] | -2% | -4% | . | 2%[46.1 µM] | -15% | -1%
Cc1ccc(S(=O)(=O)N2CCCCC2)cc1C(=O)OC1CCCCC1=O (stereo not drawn) | . | 0%[46.1 µM] | . | 3% | . | 9% | 2% | 2%
CN1CCN(CCCNC(=O)Nc2cccc3ccccc23)CC1 | 2.2% | 8% | 3% | -15% | 0% | 20% | 5% | 4%
CN1C(=O)C(/C(N)=N/NC(=O)c2ccccc2)C2CC1(C)Oc1ccccc12 (stereo not drawn) | -2.3% | 13% | 15% | -12% | -2% | 4% | 0% | 13%
Cc1nc2sccc2c(=O)n1-c1ccccc1Cl | 1.3% | 6% | 7% | -17% | 1% | 4% | 2% | -1%
CCCCn1c(SCc2ccccc2C)nc2ccsc2c1=O | 1.1% | -12%[46.1 µM] | . | -20% | -8% | . | . | .
CC1CN(c2ccc([N+](=O)[O-])c(NCCOc3ccccc3)c2)CCN1 (stereo not drawn) | . | 26%[46.1 µM] | 0% | 7% | . | ? | -6% | 0%
CCO[C@H]1OC(C(=O)NCc2ccccc2)=C[C@@H](c2coc3ccccc3c2=O)[C@@H]1CCCO | . | . | 1% | 10% | . | . | -17% | 0%
O=C(NCc1ccccc1)C(=O)Nc1nc(-c2ccccc2)cs1 | . | 10% | 3% | -17% | . | ? | -13% | -1%
CC(=O)NC12CC3CC(C1)CC(C(=O)Nc1ccc(C)c(S(=O)(=O)N4CCCCCC4)c1)(C3)C2 | . | -18% | . | 0% | . | ? | 2% | .
CN(C)c1ccc(C=Nc2cnn(C)c2C(N)=O)cc1 | -3.5% | 0% | -75% | 23% | -5% | 26%[46.1 µM] | 10% | -11%
CCOC(=O)c1[nH]c(C)c(C(=O)N2CCc3ccccc32)c1C | 4.9% | ? | -7% | -11% | 18% | ? | -7% | 6%
O=c1cc(C(F)F)oc2c1ccc1ccccc12 | 1.3% | 20% | -8% | . | -3% | 3% | 15% | 4%
C(=N\c1nc2ccccc2n1CCN1CCCCC1)/c1cccs1 | -9.7% | ? | 3% | -11% | -24% | -15% | -3% | -6%
O=C(Nc1cccc(F)c1)/C(=C\c1ccco1)NC(=O)c1cccs1 | -0.9% | -3% | 5% | -14% | 2% | -1% | -20% | -9%
O=C(N/N=C/c1c(Nc2cccc(C(F)(F)F)c2)nc2ccccn2c1=O)c1ccccc1 | 0.7% | . | 1% | . | -11% | . | . | -3%
Cc1ccc(C)c(NC(=O)CCC(=O)N/N=C/c2cccnc2)c1 | . | . | 6% | -10% | . | . | 2% | -2%
O=C1NCC(Nc2ccccc2)C(=O)N1 (stereo not drawn) | . | 10% | . | -24% | . | -2% | -2% | .
CCOC(=O)c1sc2ccccc2c1S(=O)(=O)Nc1ccc(C(C)=O)cc1 | -18% | 18%[46.1 µM] | . | 132%[activator] | -9% | . | . | .
Cc1cccc(-n2c(/C=C/c3ccccc3O)nc3ccccc3c2=O)c1 | -6.2% | ? | . | ? | ? | . | . | .
CCN(CC)S(=O)(=O)c1ccc(Oc2ccccc2)cc1 | -0.2% | 1% | -8% | -16% | -8% | -21% | 17% | -11%
O=C(Nc1cc(S(=O)(=O)N2CCOCC2)ccc1N1CCCCC1)c1ccccc1 | . | -12% | . | -25% | . | 2% | 10% | 3%
COc1ccc(Cl)c(OC)c1C(=O)NC(=O)Nc1c(F)cc(F)cc1F | . | 3% | -2% | 0% | . | -5%[14.2 µM] | 0% | -4%
O=C(Nc1ccc2nccnc2c1)Nc1ccccc1Cl | . | -1%[46.1 µM] | 6% | 13% | . | ? | 1% | 1%
COc1ccc(OC)c(C2C(C(=O)c3ccccc3)=C(C)Nc3nc4ccccc4n32)c1 (stereo not drawn) | -0.6% | 5% | -7% | -26% | 0% | 17% | -6% | 2%
CCOC(=O)c1ccc(Nc2nc(C(=O)OCC)nc3ccccc23)cc1 | -7.4%&-12% | ? | -1% | ? | ? | ? | -17% | 7%
Cn1c(SCC(=O)Nc2ccccc2Br)nnc1-c1cnccn1 | . | . | 10% | -4% | . | . | -1% | 3%
CC(C)C(=O)Nc1ccc(C(=O)N2CCCCCC2)cc1 | 3.9% | 0% | 1% | 11% | -4% | 2% | -20%[3.69 µM] | 2%
Cn1c(SCC(=O)NCCc2ccc(S(N)(=O)=O)cc2)nc2ccccc2c1=O | . | 13% | . | -21% | . | 9% | -30% | 2%
CCOC(=O)C1CCN(c2nc(-c3ccc(Br)cc3)nc3ccccc23)CC1 | 0.9% | -11% | . | ? | 2% | -16%&-16%[46.1 µM] | -18% | -1%
Cc1ccc(C)c(N2CCN(C(=O)c3cc4ccccn4n3)CC2)c1 | -4.9% | ? | -109% | -3% | 8% | -7% | 10% | 22%
O=C(Cc1ccccc1)NCC(=O)N1CCCCC1 | . | 14% | 4% | 26% | . | ? | 3% | -2%
CC1(C)Cc2noc(N)c2C(C)(C)N1O | -0.6% | 3% | -2% | 25% | 9% | 9% | 7% | -6%
COc1ccc(N(CC(=O)N2CCC(Cc3ccccc3)CC2)S(C)(=O)=O)cc1 | . | ? | -2% | -29% | . | -10%[46.1 µM] | -11% | 0%
CCN(c1ccc(C)cc1)S(=O)(=O)c1nnc(NC(=O)c2cccs2)s1 | -2.6% | 16%[46.1 µM] | . | -6% | -5% | . | . | .
CCCOc1c(Br)cc(C(N)=O)cc1OCC | . | -10% | 5% | -24% | . | ? | -5% | 0%
Cc1ccc(OCCSc2nnc(C)c(=O)n2N)cc1 | . | 10% | 3% | 34%[activator] | . | -1%[46.1 µM] | -5% | 1%
COc1cc2nc(C3CCC3)nc(N3CCN(c4ccccn4)CC3)c2cc1OC | -12% | ? | -7% | 18µM* | -9% | ? | -13% | -2%
CCCn1c(NC(=O)CSCC(=O)Nc2cc(C)on2)nc2ccccc21 | . | 16%[46.1 µM] | . | 1% | . | ? | -7% | -19%
COc1ccc(CNC(=O)CN2N=C(c3ccccc3)CCC2=O)c(OC)c1 | -0.2% | 27%[46.1 µM] | . | -3% | 3% | . | . | .
COc1ccccc1C(=O)NC(=S)Nc1ccc(NC(=O)c2cccs2)cc1 | -2.6% | -24% | 24% | ? | ? | ? | 0% | ?
O=Cc1ccc(O)cc1O | . | . | -14% | -18% | . | . | 5% | 5%
COc1ccc(-c2cc3nc4n(c(=O)c3s2)CCC4)cc1 | -8.7% | ? | -39% | 0% | ? | 1.6µM* | -12% | -1%
O=C(CC(Cc1ccccc1)C(=O)O)Nc1ccccc1 (stereo not drawn) | . | . | 1% | -3% | . | . | 0% | 2%
CC(C)(C)C(=O)NC1(C(F)(F)F)NC(=O)N(Cc2ccccc2)C1=O (stereo not drawn) | . | ? | 6% | -7% | . | ? | 10% | 0%
CCC(=O)n1nc(-c2ccc(OC)cc2)nc1SC | -0.6% | ? | -2% | 57%[activator] | -14% | 14% | 0% | 6%
N#Cc1c(-c2ccc(Cl)cc2)ccn2nc(CCC(=O)O)nc12 | -2.3% | 8% | ? | -12% | 6% | 8% | 21% | .
O=C(CCC(=O)OCC(F)(F)C(F)F)Nc1ccccc1F | . | . | . | 11% | . | 23%[46.1 µM] | 4% | 2%
COc1cccc(OC)c1C(=O)Nc1nnc(-c2cccs2)s1 | . | 10%[46.1 µM] | 0% | 1% | . | ? | -7% | 0%
O=C(CN1CCSCC1)c1c[nH]c2ccccc12 | -0.3% | 12% | 5% | 30%[activator] | -8% | 28%[46.1 µM] | 25% | 0%
CC1=C(c2cccc(Cl)c2)S(=O)(=O)NC1=NCc1ccccc1C | 5.7% | 25%[46.1 µM] | . | 22% | 11% | -23%[46.1 µM] | . | .
CC1CCC(C(=O)NC(C(=O)NCc2cccnc2)C(C)C)CC1 (stereo not drawn) | 3.6% | 7% | 11% | -3% | 8% | 16% | 0% | -9%
O=C(Cn1c(=O)cnc2ccccc21)N1CCN(S(=O)(=O)c2ccc(F)cc2)CC1 | . | -7% | . | -2% | . | 5% | 16% | 4%
COc1cccc(N(Cc2nnc3n2CCCCC3)C(=O)Nc2ccccc2)c1 | -1.0% | 6%[46.1 µM] | . | -4%&0% | 8% | . | -12% | 0%
CC(C)CCn1c(=O)c2ccccc2n2c(COC(=O)c3ccc(S(=O)(=O)N(C)C)cc3)nnc12 | 0.5% | . | -31% | . | ? | 7% | . | 0%
COc1ccc(NC2CCCN(C(=O)c3cccc(N4CCNC4=O)c3)C2)cc1 (stereo not drawn) | . | . | 13% | -4% | . | . | 8% | 0%
Additional records follow:
SMILES | Cruzain inh Det | Lassa entry inh | NS1 function inh | StopGo reporter | Cruzain noTriton | Marburg entry inh | RE007 growth inh | SARS PLP yeast
O=C(c1ccccc1)N1CCN(CC(O)COc2cccc3ccccc23)CC1 (stereo not drawn) | . | . | 5% | -3% | . | . | 2% | 2%
N#Cc1cc(-c2ccccc2)cnc1Sc1ccccc1 | -6.8% | -10% | 11% | 17% | -5% | 9% | -15% | -6%
CC1CCc2c(sc(NC(=O)COC(=O)c3ccc(NC(=O)CC#N)cc3)c2C#N)C1 (stereo not drawn) | . | 5% | . | -5% | . | -5%[46.1 µM] | 2% | -1%
Cc1ccc(N2CCN(c3nc4ccccc4c4nnc(C)n34)CC2)c(C)c1 | -5.4% | 3%[46.1 µM] | . | 19% | -7% | . | . | .
CCC(C)n1c(-c2cc(OC)c(OC)c(OC)c2)nc2nc3ccccc3nc21 (stereo not drawn) | -2.1% | . | -35% | . | ? | 0% | . | -17%

Assay outcomes from PubChem.

Not a hit list; overall some 4.8% were active at least once.
